Screening results from PubChem.
BJeLR viability – MLPCN primary cell-based screen for lethality selective to Ras in HRASV12 cells; AID 1554, 2009; 300,000 tested, 0.17% active; BJeLR (HRASV12) viability, CellTiter-Glo ATP luminescence, 48 h; reference of the scale not given here; inhibition, % (no concentration beside the values);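 active = replicate mean above 50%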;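 also: 50 nL library stock added to about 25 µL; numbers are from one replicate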
Mtb hypoxia inh – PubChem AID 1159583; M. tuberculosis hypoxia-regulated fluorescent reporter, fluorescence; fluorescence inhibition, % (test concentration not listed); 300,000 tested, 0.1% active;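 active = 35 to 45% if threefold the growth effect, above 45% if 1.5-fold the growth effect; inactive = the rest, general growth blockers included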;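 also: wells of about 50 µL received 100 nL stock; 0% = vehicle wells and 100% = reference inhibitor wells; whole bacteria with a GFP reporter of the hypoxia response; strong numbers were not always called active; many hits fall short of the cut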
Sa ugtP lethal – growth inhibition of ugtP-null S. aureus, primary screen, RN4220 ugtP deletion, OD600; AID 1259309, 2017; 330,000 tested, 0.54% active; 16 h; some inactives read as strong as hits; growth inhibition, % (test concentration not listed);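 active = z-score under -3 and OD600 up to 0.15 on both plates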;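 also: plate controls were untreated wells for no effect and antibiotic for full effect; wells of about 80 µL received 100 nL stock; the first replicate is given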
Bead autofluor – compound fluorescence in toxin protease inhibitor counterscreen. compound autofluorescence counterscreen, microsphere flow cytometry; hits give high values. fluorescence intensity (concentration not given with the values). 360,000 tested, 3.1% active;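 active = at least 3 SD above the mean of all compounds, about 16000 in these data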;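 also: 100 nL of 1 mM stock went into each well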
RN4220 kill – growth inhibition of S. aureus RN4220, primary screen, OD600; 16 h; AID 1259311, 2017; inhibition, % (test concentration not listed); 330,000 tested, 0.33% active;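 active = z-score of -3 or lower and OD600 up to 0.18 on both plates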;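 also: plate controls were untreated cells for no effect and reference antibiotic for full effect; stock transfer was 100 nL into about 80 µL; one replicate is shown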
PrP 5UTR inh – inhibition of PrP 5' UTR reporter expression. cell-based PrP 5' UTR mRNA reporter, plate reader. inhibition, % (no concentration beside the values). 340,000 tested, 0.35% active. AID 488862, 2010;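 active = every replicate at 50% or more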;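 also: 0 = median of the neutral control wells; tested in H4 reporter cells; numbers are from one replicate; inactives centre near -14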
Mtb hypoxia inh growth – also measured in Mtb hypoxia inh; calls as there; growth inhibition, %; measured here: M. tuberculosis growth (absorbance);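 0% = vehicle and 100% = reference antibiotic; read after six days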
An asterisk follows results filed as active; · = not tested or not shown.

SMILES | BJeLR viability | Mtb hypoxia inh | Mtb hypoxia inh growth | Sa ugtP lethal | Bead autofluor | RN4220 kill | PrP 5UTR inh
CC1CCN(CCCNC(=O)c2cc3c(=O)n(C)c4ccccc4c3n2C)CC1 | -17.4 | · | · | -4.5 | 6066 | 4.0 | -9.6
CC(C)(C)NCC(O)c1cc(O)cc(O)c1 (configuration not stated) | 1.1 | 13.7 | 6.3 | 3.6 | 4242 | 6.4 | -0.2
Cc1ccc(S(=O)(=O)N2CCC(NC(=O)c3cccc(F)c3)CC2)cc1 | -3.0 | 1.7 | -3.9 | 0.9 | 3307 | 4.7 | -8.3
CN(C)/C=N/S(=O)(=O)c1ccc(Cl)cc1 | 3.9 | · | · | · | 3992 | · | -39.8
O=C(NCCN1CCN(S(=O)(=O)c2ccccc2)CC1)C(=O)Nc1ccc(F)cc1 | -0.3 | -6.3 | -7.8 | 2.3 | 5853 | -1.2 | -13.9
O=C(c1ccccc1)N1CCC2(CC1)NCCc1[nH]cnc12 | -2.3 | 5.4 | 5.4 | 7.0 | 5236 | 3.9 | -9.1
COc1ccc(N2CCN(C(=O)CCc3ccccc3OC)CC2)cc1 | 4.7 | 8.2 | 5.1 | 6.9 | 3970 | 5.6 | -3.8
O=C(N/N=C/c1ccc(OC(=O)c2cccs2)cc1)c1ccc(F)cc1 | -2.7 | · | · | · | 10001 | · | -29.4
O=C(CSc1nnc(Cc2ccccc2)o1)N1CCc2ccccc21 | -11.2 | · | · | -3.1 | 4954 | -0.7 | -4.0
CC(=O)N1CCOc2ccc(S(=O)(=O)NCCc3ccccc3)cc21 | -3.5 | -3.2 | -4.6 | 0.9 | 4863 | -0.6 | -13.0

Some values from the entries so far:
Value of CC(C)(C)NCC(O)c1cc(O)cc(O)c1 (configuration not stated) under Mtb hypoxia inh: 13.7
Value of CC(=O)N1CCOc2ccc(S(=O)(=O)NCCc3ccccc3)cc21 under BJeLR viability: -3.5

Next results
SMILES | BJeLR viability | Mtb hypoxia inh | Mtb hypoxia inh growth | Sa ugtP lethal | Bead autofluor | RN4220 kill | PrP 5UTR inh
CCCC(C)C(=O)Nc1cc([N+](=O)[O-])ccc1Cl (configuration not stated) | -0.4 | -3.5 | 11.5 | 2.8 | 5484 | 5.3 | -18.5
O=C(/C=C/c1ccc(Cl)cc1)N1CCN(c2c(Cl)cccc2[N+](=O)[O-])CC1 | 4.9 | -0.8 | -2.6 | -5.5 | 10121 | 21.4 | -18.4
CCOC(=O)c1c(N=CN(C)C)c(C#N)n2c1CCC2 | 0.6 | · | · | 2.4 | 4387 | 0.8 | -20.9
CC1Cc2ccccc2N1C(=S)NC1CCCC1 (configuration not stated) | -5.6 | 13.3 | 14.2 | 0.6 | 5234 | 1.9 | -31.8
CCC1CCCCN1C(=O)CSc1nc2ncccc2[nH]1 (configuration not stated) | -3.5 | 6.1 | 9.3 | 2.4 | 5028 | 4.1 | -0.4
CCNc1c(NS(=O)(=O)c2ccc(C3CCCCC3)cc2)c(=O)oc2ccccc12 | 0.5 | 4.7 | 2.1 | -3.0 | 2784 | 0.0 | -2.1
CCP(=O)(CC)c1cccc(N)c1 | 8.9 | · | · | -4.0 | 4930 | 1.6 | -0.9
CSc1nncc(/C(C)=N\Nc2cccc(C)c2)n1 | 12.4 | · | · | · | 3131 | · | -32.4
COc1ccc(-c2nc(N3CCCCCC3)sc2C(=O)c2ccccc2)cc1 | 4.1 | · | · | 72.6 | 3805 | 0.0 | -8.4
CCc1ccc(OCC(=O)Nc2ncn[nH]2)cc1 | -5.8 | 6.2 | 2.2 | -0.4 | 3450 | 3.8 | -11.6
Cc1ccc(CNC(=O)c2ccc(CS(=O)Cc3ccccc3Cl)o2)cc1 (configuration not stated) | 5.8 | 4.8 | 15.5 | 1.9 | 5635 | 1.1 | -14.3
O=C(CSc1ccccc1C(=O)O)Nc1ccc2c(c1)OCO2 | · | 1.7 | 2.4 | -2.9 | 2963 | -0.6 | -13.7
Nc1cnn(Cc2ccc(F)cc2)c1 | 3.6 | 5.7 | 1.1 | 3.1 | 4622 | 1.5 | -5.9
COc1ccc(NC(=O)CC2C(=O)NCCN2C(=O)c2ccccc2)cc1 (configuration not stated) | -5.0 | 3.7 | -6.4 | 5.3 | · | 0.4 | -7.4
O=C(COc1ccc(F)cc1Cl)Nc1ccc(N2CCOCC2)cc1N1CCOCC1 | -10.4 | 7.6 | -0.5 | 2.6 | 4161 | 5.7 | -15.4
CCCc1cc(=O)[nH]c(SCC(=O)Nc2ccc([N+](=O)[O-])cc2C#N)n1 | 11.2 | 3.2 | -4.9 | 6.2 | 4264 | -0.5 | -24.2
COc1ccc(OC)c(S(=O)(=O)NCC2CCCO2)c1 (configuration not stated) | 1.3 | 4.1 | 1.7 | -1.8 | 2335 | -2.5 | -1.5
Cn1cnnc1SCC(=O)NC1CCCN(Cc2ccc(Cl)cc2)C1 (configuration not stated) | 4.1 | 1.3 | 2.4 | 10.8 | 4711 | 4.1 | -1.4
Cc1nn2c(N)c(C#N)cnc2c1-c1ccc(Cl)cc1 | -12.2 | -0.6 | 1.0 | -6.4 | 2494 | -8.8 | -16.8
CCN(CC)S(=O)(=O)c1cccc(-c2nnc(SCC(=O)c3ccc(Cl)s3)n2C)c1 | -3.9 | · | · | -1.4 | 3702 | 6.2 | -6.9
C[C@H](CO)N1C[C@H](C)[C@@H](CN(C)C(=O)NC2CCCCC2)Oc2ccc(NS(=O)(=O)c3ccccc3)cc2C1=O | · | 5.6 | 2.4 | -7.1 | 4110 | -16.2 | -4.9
COC(=O)C1C(O)=C(C=NCc2ccccc2)C(=O)CC1(C)C (configuration not stated) | 0.6 | 2.5 | 0.2 | 2.1 | 3870 | 2.5 | -29.4
CSCC(=O)NC1CCCc2c1cnn2-c1ccc(C)c(C)c1 (configuration not stated) | -13.1 | -10.3 | -11.4 | -4.8 | 3960 | -1.6 | -29.0
CC(=O)Nc1cnc(NC(=O)c2cccc(F)c2)cc1C | 1.7 | · | · | 3.7 | 4817 | 3.5 | -39.8
COc1cccc(CCNC(=O)c2ccc(OC)c(OC3CCN(C(C)C)CC3)c2)c1 | -1.2 | 8.7 | 6.2 | 4.4 | 6203 | 2.7 | -11.4
O=c1cc(-c2ccccc2)oc2cc(O)cc(O)c12 | -13.4 | · | · | -1.4 | 3957 | 2.0 | -32.5
O=C(O)Cn1nnc2ccccc21 | -9.8 | -17.1 | -5.9 | 2.4 | 4490 | 3.2 | -5.5
COc1cc(NC(=O)C2CCN(S(=O)(=O)c3cccnc3)CC2)cc(OC)c1OC | 4.6 | · | · | -0.2 | 2190 | 3.0 | -5.3
CCc1ccc(NC(=O)C(=O)NCC2CCCN2S(=O)(=O)c2ccccc2)cc1 (configuration not stated) | 5.9 | 5.4 | 13.8 | 5.0 | 10567 | 0.0 | -3.5
CCc1nnc(NC(=O)c2cc(Cl)ccn2)s1 | 7.4 | 3.1 | 17.6 | -15.2 | 3791 | 6.2 | -4.6

Entries from the list above containing a COOH group, in the order listed:
SMILES | BJeLR viability | Mtb hypoxia inh | Mtb hypoxia inh growth | Sa ugtP lethal | Bead autofluor | RN4220 kill | PrP 5UTR inh
O=C(CSc1ccccc1C(=O)O)Nc1ccc2c(c1)OCO2 | · | 1.7 | 2.4 | -2.9 | 2963 | -0.6 | -13.7
O=C(O)Cn1nnc2ccccc21 | -9.8 | -17.1 | -5.9 | 2.4 | 4490 | 3.2 | -5.5

The listing continues:
SMILES | BJeLR viability | Mtb hypoxia inh | Mtb hypoxia inh growth | Sa ugtP lethal | Bead autofluor | RN4220 kill | PrP 5UTR inh
COc1ccc(CNC(=O)C[C@H]2C[C@H](C(=O)N(C(C)C)C(C)C)[C@@]3(C)c4[nH]c5cc(CCC(=O)N(C)C)ccc5c4CCN3C2=O)cc1OC | · | 1.8 | -6.3 | 7.1 | 3743 | 2.1 | -15.3
COc1ccc(NC(=O)CN(C)C(=O)C2CSC3(C)CCC(=O)N23)cc1 (configuration not stated) | · | 8.5 | 7.9 | 2.1 | · | 5.6 | -6.3
COc1ccc(Cl)cc1NC(=O)c1cc(-c2cc(C)ccc2O)n[nH]1 | 8.8 | -4.3 | -12.6 | 0.7 | 3554 | 7.7 | ·
CC(C)CNC(=S)N1CCC(c2nc(-c3ccc(F)cc3)no2)CC1 | · | -4.2 | 12.5 | 4.4 | 4802 | 0.4 | 4.6
O=S(=O)(c1ccc(Cl)cc1)N1CCC(n2cccc2)CC1 | 7.8 | 12.2 | -1.5 | 1.1 | 4564 | 0.9 | -13.1
Cc1ccc(N(C(=O)c2snc(C(N)=O)c2N)C(C(=O)NCC2CCCO2)c2ccc3ncccc3c2)cc1 (configuration not stated) | -6.4 | 16.8 | 4.6 | -3.7 | 5852 | 0.8 | -16.4
CCCCOc1ccc(Br)cc1C(C)=NNC1=NCCN1 | · | -17.6 | -6.1 | -24.1 | · | 10.8 | ·
Cc1ccc(N(CC(O)CN2CCOCC2)S(=O)(=O)c2ccc([N+](=O)[O-])cc2)cc1 (configuration not stated) | -0.3 | -3.1 | -5.6 | 0.7 | 4611 | -0.4 | 0.8
C#CCOCCOCCOCCNc1nc(N2CCN(C(=O)C(CCCCN)n3cc(CCCC)nn3)CC2)nc(N2CCN(C(=O)C(C(C)CC)n3cc(CCCCN)nn3)CC2)n1 (configuration not stated) | · | 4.7 | 13.3 | 4.8 | · | 2.8 | ·
COc1ccc(/C=N/N=C/c2c[nH]c(=O)c(C#N)c2Nc2ccccc2)cc1 | -4.4 | · | · | · | 10893 | · | -38.7
CCOC(=O)C1(CCCc2ccccc2)CCN(C(=O)c2cncs2)CC1 | 0.9 | 2.2 | 2.0 | 9.1 | 4330 | 3.0 | 3.4
Cc1ccc(-c2ccc(=O)n(CCC(=O)NCc3ccccn3)n2)cc1 | 0.6 | 16.1 | 16.0 | -3.5 | 2925 | -11.4 | -31.8
CN(c1ccccc1)S(=O)(=O)c1ccc(Cl)c(C(=O)OCC(N)=O)c1 | -0.3 | -8.8 | -2.0 | 15.7 | 2402 | 9.0 | -40.1
CC(C)(C)CC(C)(C)NCC(=O)Nc1c2c(nc3ccccc13)CCC2 | -6.5 | -1.8 | 5.0 | -2.3 | 4472 | 2.3 | -19.3
CCOC(=O)c1c(S(=O)(=O)NCCc2ccccc2)c(C)n(C)c1C | -3.5 | 3.1 | 1.5 | 5.5 | 6265 | 0.9 | -15.0
O=C(CNC(=O)c1ccc(Cl)cc1Cl)OC1CCCCC1=O (configuration not stated) | · | 10.5 | 8.1 | 8.5 | 3674 | 2.0 | -25.4
COc1ccc2[nH]c3c(c2c1)CCNC3C (configuration not stated) | -9.9 | 4.4 | 13.9 | -3.0 | 3722 | 1.0 | -17.6
O=C(CCCc1ccccc1)Nc1cccc2c1CCCC2 | 6.0 | · | · | 0.9 | 2576 | 1.9 | -19.2
O=C(CNc1cccc2ccccc12)NN=Cc1ccc([N+](=O)[O-])o1 | · | -5.5 | 24.0 | 100.2* | · | 99.4* | ·
CC(=O)Nc1cccc(NC(=O)CSc2ncc(C(=O)Nc3ccccc3)c(=O)n2C)c1 | 17.7 | 15.2 | 6.4 | 4.9 | · | 2.8 | -13.3
Cc1ccc2nc(CSc3nc(C)ccc3C#N)[nH]c2c1 | 3.5 | 17.5 | 12.2 | -22.4 | 11204 | 3.9 | -30.4
CC1(C)Cc2cccc(C(=O)NCc3ccco3)c2O1 | 2.5 | -3.8 | -0.7 | -4.7 | 3719 | -1.5 | ·
CCN(CC)c1ccc(NC(=O)c2c(OC)cccc2OC)c(C)c1 | -5.1 | 6.1 | 7.6 | -0.6 | 9869 | 2.5 | 1.2
CCn1cc(S(=O)(=O)c2ccc(C)cc2)c(=O)c2cc(OC)ccc21 | 0.0 | 18.0 | 7.1 | 5.2 | 5136 | 2.7 | -18.0
COc1cccc(C2CC(c3c(F)cccc3Cl)n3nc(N)nc3N2)c1 (configuration not stated) | 2.8 | · | · | 7.1 | 2464 | 3.6 | -17.5
Nc1ccc(S(=O)(=O)NCC2CCCCO2)cc1 (configuration not stated) | · | 21.6 | 8.4 | 10.2 | 2984 | 4.5 | -5.3

Arranged by SMILES length (rising): some entries from above
SMILES | BJeLR viability | Mtb hypoxia inh | Mtb hypoxia inh growth | Sa ugtP lethal | Bead autofluor | RN4220 kill | PrP 5UTR inh
CC1(C)Cc2cccc(C(=O)NCc3ccco3)c2O1 | 2.5 | -3.8 | -0.7 | -4.7 | 3719 | -1.5 | ·
CCN(CC)c1ccc(NC(=O)c2c(OC)cccc2OC)c(C)c1 | -5.1 | 6.1 | 7.6 | -0.6 | 9869 | 2.5 | 1.2
COc1cccc(C2CC(c3c(F)cccc3Cl)n3nc(N)nc3N2)c1 (configuration not stated) | 2.8 | · | · | 7.1 | 2464 | 3.6 | -17.5
